High-throughput results deposited in PubChem BioAssay by several laboratories.
ALR H2O2 inh: human ALR oxidase inhibition via reduced H2O2; P55789; purified ALR, DTT oxidation, H2O2 HRP-luminol luminescence; inhibition, % (test concentration not listed); 3.8% of 290,000 active; AID 485317;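 active = mean and each replicate at 75% or more; inconclusive = only one of the two met; inactive = neither met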;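 also: stock transfer was 7.5 nL into about 7.5 µL; 0% = neutral wells and 100% = wells with inactivated enzyme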
T cruzi repl: T. cruzi replication inhibition; AID 1885; T. cruzi beta-gal in NIH3T3, luminescence, 90 h; inhibition, % (no concentration beside the values); 1.4% of 300,000 active;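 active = mean inhibition across valid replicates above about 55%, limit read from the data; inconclusive = mean below that limit but half or more replicates reach it; inactive = mean below it, under half of replicates reach it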;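 also: signal also drops with host cell toxicity which is not excluded here; 0% = plate median of DMSO wells and 100% = zero luminescence signal; higher percent means less beta-gal luminescence so fewer parasites; stock transfer was 50 nL into about 50 µL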
A1 inh: inhibitors of the anti-apoptotic protein A1, read as caspase activation; 0.066% of 330,000 active; caspase activation, % (no concentration beside the values); MEF A1-2A-BIM cells, Caspase-Glo 3/7 luminescence, 3 h; percent of clofoctol response, vehicle zero;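 active = over half of replicate activation scores above 10%, or exactly half above 10 with the replicate mean above 10; inconclusive = replicate mean below 10 yet half the replicates above 10; inactive = over half of replicates below 10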;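 also: wells of about 30 µL received 50 nL stock; many hits fall short of the cut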
LANA-H2B inh: blocks KSHV LANA binding to histone H2A/H2B; Q9QR71; inhibition, % (no concentration beside the values); 0.6% of 320,000 active; cell-free LANA-H2A/H2B peptide, fluorescence polarization; in the data active = inhibition mostly above about 10%, no sharp cut-off; inactive = mostly below about 6.7%;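 also: stock transfer was 7.5 nL into about 10 µL; 0% = median of vehicle wells and 100% = median of positive control wells; one replicate is shown; the record names a cut of 25% in any replicate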
Target sequence (Q9QR71 whole entry, looked up): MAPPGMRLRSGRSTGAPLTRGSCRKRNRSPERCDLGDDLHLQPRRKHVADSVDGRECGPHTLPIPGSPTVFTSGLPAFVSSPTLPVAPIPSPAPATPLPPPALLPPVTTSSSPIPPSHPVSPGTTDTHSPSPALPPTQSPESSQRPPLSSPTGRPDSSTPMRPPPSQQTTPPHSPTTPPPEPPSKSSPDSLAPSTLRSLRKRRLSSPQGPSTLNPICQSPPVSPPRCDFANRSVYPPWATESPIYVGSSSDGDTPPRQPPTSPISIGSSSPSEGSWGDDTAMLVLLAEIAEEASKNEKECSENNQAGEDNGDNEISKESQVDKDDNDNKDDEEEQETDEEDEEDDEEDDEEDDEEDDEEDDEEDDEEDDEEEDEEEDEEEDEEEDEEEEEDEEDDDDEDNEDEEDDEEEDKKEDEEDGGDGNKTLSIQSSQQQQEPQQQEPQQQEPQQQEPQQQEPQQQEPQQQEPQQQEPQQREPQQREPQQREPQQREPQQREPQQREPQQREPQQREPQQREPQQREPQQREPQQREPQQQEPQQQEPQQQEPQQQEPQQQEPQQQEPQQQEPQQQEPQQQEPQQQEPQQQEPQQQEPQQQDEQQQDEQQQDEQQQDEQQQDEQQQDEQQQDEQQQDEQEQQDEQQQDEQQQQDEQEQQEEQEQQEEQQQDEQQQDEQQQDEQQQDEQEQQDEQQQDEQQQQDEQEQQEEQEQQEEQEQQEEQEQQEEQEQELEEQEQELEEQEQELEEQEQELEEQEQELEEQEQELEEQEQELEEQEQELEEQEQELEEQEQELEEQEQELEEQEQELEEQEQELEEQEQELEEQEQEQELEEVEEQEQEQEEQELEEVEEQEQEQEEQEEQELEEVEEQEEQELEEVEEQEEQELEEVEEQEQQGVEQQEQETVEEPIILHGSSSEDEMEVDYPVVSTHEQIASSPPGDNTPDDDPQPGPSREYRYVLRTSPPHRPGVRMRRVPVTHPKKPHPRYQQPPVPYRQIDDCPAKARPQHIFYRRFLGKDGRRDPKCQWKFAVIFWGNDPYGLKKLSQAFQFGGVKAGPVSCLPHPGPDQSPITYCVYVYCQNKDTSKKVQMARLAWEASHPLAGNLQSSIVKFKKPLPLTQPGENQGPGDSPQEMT
Beta apoptosis: blocks beta cell apoptosis. INS-1E cytokine-induced death, ATP luminescence, 48 h; percent of positive-control rescue, neutral wells zero. protection from apoptosis, % (no concentration beside the values). 0.8% of 300,000 active. AID 435005;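 active = all replicates at 75% or more, or half of them and the mean; inconclusive = half reach 75% but not the mean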;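 also: 0% = cytokine-treated negative control wells and 100% = positive control rescue; higher means more ATP so stronger rescue from cytokine killing; wells of about 40 µL received 100 nL stock; the first replicate is given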
Beta2AR agonist: agonists of human beta-2 adrenergic receptor inducing internalization; Am2.2-beta2AR cells, FAP receptor internalization, flow cytometry; reference of the scale not given here; response, % (concentration not given with the values); 0.43% of 340,000 active; AID 504454;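 active = response above a set limit, near 3 SD of response in nonfluorescent compounds, cut at about 42% in these data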;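 also: stock transfer was 100 nL into about 11 µL; a reference agonist was the positive control; negative values mostly stem from fluorescent compounds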
Calb FLC: affects C. albicans growth with fluconazole; growth inhibition, % (test concentration not listed); 0.57% of 300,000 active; C. albicans CaCi-2 (fluconazole-resistant clinical isolate) + fluconazole, Alamar Blue growth, 48 h; AID 1979;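 active = most replicates above 75%; inconclusive = exactly half above 75%; inactive = most below 75%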;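 also: all wells also contain fluconazole at 8 µg/ml as a sub-toxic cotreatment; 0% = median of DMSO wells and 100% = median of geldanamycin control wells; wells of about 8 µL received 7.5 nL stock; the first replicate is given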
rRNA inh HTS: selective bacterial rRNA inhibition in E. coli; E. coli WT GFP vs humanized-ribosome RFP mutants, fluorescence, 24 h; active compounds read low; DMSO median 0, no signal -100; GFP signal change (wild-type ribosome), % (no concentration beside the values); 1.6% of 350,000 active; AID 720706;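 active = significant combined selectivity score with lowered wild-type GFP, culture density cut under 30%, mutant RFP and density less affected; inactive = any of these conditions unmet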; also: one replicate is shown; some compounds called inactive have numbers as strong as hits
rRNA inh HTS OD600: second read-out of rRNA inh HTS, no call of its own (marks repeat the call); OD600 change, %; measured here: OD600 growth;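 optical density of the mix in the first replicate; 0 = DMSO median and -100 = no signal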
rRNA inh HTS RFP: second read-out of rRNA inh HTS, no call of its own (marks repeat the call); RFP signal change, %; measured here: RFP humanized mutant strains;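 first replicate; 0 = DMSO median and -100 = no signal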
An asterisk follows results filed as active.

How did CCOc1ccc(S(=O)(=O)NCCC(=O)N2CCC(Cc3ccccc3)CC2)cc1 do in these assays?
ALR H2O2 inh: -4; T cruzi repl: 7; A1 inh: -0.3; LANA-H2B inh: -1.3; Beta apoptosis: 4; Beta2AR agonist: -2; Calb FLC: -7; rRNA inh HTS: -39; rRNA inh HTS OD600: -68; rRNA inh HTS RFP: -8.2

Results for CCN(CC)CCN1C(=O)C(=O)/C(=C(/O)c2ccc(C)cc2)C1c1cccnc1 (stereo not drawn) ?
ALR H2O2 inh: 2; T cruzi repl: -11; A1 inh: 0.8; LANA-H2B inh: 1.3; Beta apoptosis: -1; Beta2AR agonist: -4; Calb FLC: 9; rRNA inh HTS: 7; rRNA inh HTS OD600: 1; rRNA inh HTS RFP: -7.5

What do the screens show for `COc1cc(C(Nc2ccccn2)c2ccc3ccc(C)nc3c2O)cc(OC)c1O` (stereo not drawn)?
ALR H2O2 inh: -13; T cruzi repl: 52; A1 inh: -1.4; LANA-H2B inh: 2.2; Beta apoptosis: 3; Beta2AR agonist: 40; Calb FLC: 113*; rRNA inh HTS: 7; rRNA inh HTS OD600: 11; rRNA inh HTS RFP: 3.8

How did CC1CCN(C(=O)c2cccc(NC(=O)c3cccs3)c2)CC1 do in these assays?
ALR H2O2 inh: 16; T cruzi repl: -4; A1 inh: -0.2; LANA-H2B inh: 2.8; Beta2AR agonist: -38; Calb FLC: 10; rRNA inh HTS: -6; rRNA inh HTS OD600: -9; rRNA inh HTS RFP: -2.0

Results for CC1CCc2c(nc3ncnn3c2N2CCN(c3ccccc3F)CC2)C1 (stereo not drawn) ?
ALR H2O2 inh: -1; T cruzi repl: 10; A1 inh: 2.0; LANA-H2B inh: -0.9; Beta apoptosis: 12; Beta2AR agonist: 23; Calb FLC: 0

Results for Fc1ccc(Cn2nnnc2CN2CCN(C3CCCCC3)CC2)cc1 ?
ALR H2O2 inh: -5; T cruzi repl: 4; A1 inh: -0.9; LANA-H2B inh: -4.7; Beta2AR agonist: -6; Calb FLC: -4

What do the screens show for `CSc1cccc(NC(=O)CCNC(=O)c2ccco2)c1`?
ALR H2O2 inh: -11; T cruzi repl: -15; A1 inh: 0.7; LANA-H2B inh: 1.9; Beta apoptosis: 2; Beta2AR agonist: -3; Calb FLC: -3; rRNA inh HTS: 1; rRNA inh HTS OD600: -6; rRNA inh HTS RFP: 6.5

Results for CCN(C[C@H]1N[C@@](CC)(C(=O)OC)[C@H]2C(=O)N(Cc3ccccc3)C(=O)[C@@H]12)S(=O)(=O)c1ccc(C)cc1 ?
ALR H2O2 inh: 3; A1 inh: -0.2; LANA-H2B inh: active; Beta apoptosis: -4; Beta2AR agonist: 3; rRNA inh HTS: -5; rRNA inh HTS OD600: -16; rRNA inh HTS RFP: 3.9

What do the screens show for `CCNC(=O)c1ccccc1-c1nc(-c2ccccc2OC)no1`?
ALR H2O2 inh: 1; T cruzi repl: -10; A1 inh: 0.3; LANA-H2B inh: -1.2; Beta apoptosis: 0; Beta2AR agonist: -1; Calb FLC: -19; rRNA inh HTS: -9; rRNA inh HTS OD600: 3; rRNA inh HTS RFP: -3.7

What do the screens show for `Cc1ccc(OCC(=O)NNC(=O)c2cc3ccccc3o2)cc1`?
ALR H2O2 inh: -3; T cruzi repl: -7; A1 inh: 0.7; LANA-H2B inh: -4.1; Beta apoptosis: -1; Beta2AR agonist: 3; Calb FLC: -3

How did c1ccc(-c2csc(=Nc3cccnc3)n2CC2CCCO2)cc1 (stereo not drawn) do in these assays?
ALR H2O2 inh: 7; T cruzi repl: -5; A1 inh: -0.4; LANA-H2B inh: -3.8; Beta apoptosis: 3; Beta2AR agonist: -3; Calb FLC: 7

Results for Cc1cc(C)n(-c2ccc(C(=O)Nc3ccc4c(c3)OCO4)cc2)n1 ?
ALR H2O2 inh: -4; T cruzi repl: 15; A1 inh: -2.3; LANA-H2B inh: 1.6; Beta apoptosis: 0; Beta2AR agonist: 6; Calb FLC: -10

Results for COc1ccc(C)cc1NC(=O)C(NCC1CCCO1)c1ccccc1 (stereo not drawn) ?
ALR H2O2 inh: 1; T cruzi repl: 11; A1 inh: 1.2; LANA-H2B inh: -6.3; Beta apoptosis: -8; Beta2AR agonist: -4; Calb FLC: -23

How did C[C@@]12C(=O)N(Cc3ccccc3)CC(=O)N1[C@H]1c3cc(Cl)ccc3OC[C@@H]1[C@@H]2c1ccccc1 do in these assays?
ALR H2O2 inh: -2; A1 inh: -0.5; LANA-H2B inh: -2.7; Beta apoptosis: -6; Beta2AR agonist: 10; rRNA inh HTS: 8; rRNA inh HTS OD600: 12; rRNA inh HTS RFP: -5.4

Results for Cc1ccc(NC(=O)COC(=O)[C@@H]2CC(O)CN2S(=O)(=O)c2ccc3c(c2)OCCO3)cc1 (stereo partly drawn) ?
ALR H2O2 inh: -5; A1 inh: -0.1; LANA-H2B inh: -4.6; Beta apoptosis: 1; Beta2AR agonist: -10; rRNA inh HTS: -7; rRNA inh HTS OD600: -23; rRNA inh HTS RFP: 7.8

What do the screens show for `CCc1ccc2c(c1)C(c1ccncc1)=NNC(c1ccccc1)=N2`?
ALR H2O2 inh: 47; T cruzi repl: 18; A1 inh: -0.3; LANA-H2B inh: -8.8; Beta apoptosis: 5; Beta2AR agonist: -9; Calb FLC: -25; rRNA inh HTS: 1; rRNA inh HTS OD600: -2; rRNA inh HTS RFP: -3.9

Results for O=C(Nc1cccc2c1C(=O)NC2=O)c1cccnc1Cl ?
ALR H2O2 inh: 3; T cruzi repl: -2; A1 inh: -0.8; LANA-H2B inh: -2.4; Beta apoptosis: -3; Beta2AR agonist: -1; Calb FLC: 0; rRNA inh HTS: 11; rRNA inh HTS OD600: 6; rRNA inh HTS RFP: -0.3

Results for COc1ccc(C(=O)CC(=O)C(=O)Nc2cccc(C(C)=O)c2)cc1 ?
ALR H2O2 inh: -1; T cruzi repl: 8; A1 inh: 0.4; LANA-H2B inh: -3.4; Beta apoptosis: 2; Beta2AR agonist: 6; Calb FLC: -14; rRNA inh HTS: 2; rRNA inh HTS OD600: 1; rRNA inh HTS RFP: -6.1

What do the screens show for `CSCCC(NC(=O)c1ccco1)C(=O)NCC1CCCCC1` (stereo not drawn)?
ALR H2O2 inh: 0; A1 inh: 0.1; LANA-H2B inh: -2.8; Beta apoptosis: 2; Beta2AR agonist: -6; rRNA inh HTS: 9; rRNA inh HTS OD600: 3; rRNA inh HTS RFP: 2.0

Results for CCN(C(=O)COC(=O)CSc1ccccc1)c1c(N)n(Cc2ccccc2)c(=O)[nH]c1=O ?
ALR H2O2 inh: -9; T cruzi repl: -6; A1 inh: -0.2; LANA-H2B inh: -0.2; Beta apoptosis: -4; Beta2AR agonist: -12; Calb FLC: 1; rRNA inh HTS: 5; rRNA inh HTS OD600: 16; rRNA inh HTS RFP: 2.2

Results for CC1CCCN(C2=C(NS(=O)(=O)c3ccc(Br)cc3)C(=O)c3ccccc3C2=O)C1 (stereo not drawn) ?
ALR H2O2 inh: -9; T cruzi repl: 33; A1 inh: -0.1; LANA-H2B inh: 4.4; Beta apoptosis: 13; Beta2AR agonist: -2; rRNA inh HTS: -2; rRNA inh HTS OD600: 7; rRNA inh HTS RFP: 6.0

Results for O=C(c1ccco1)N1CCN(S(=O)(=O)/C=C/c2ccccc2)CC1 ?
ALR H2O2 inh: 0; T cruzi repl: 0; A1 inh: -0.4; LANA-H2B inh: 2.1; Beta apoptosis: -3; Beta2AR agonist: -9; Calb FLC: -10; rRNA inh HTS: -1; rRNA inh HTS OD600: -2; rRNA inh HTS RFP: 1.2

How did CC(=O)Nc1ccc(NC(C)=O)s1 do in these assays?
ALR H2O2 inh: 87*; T cruzi repl: -8; A1 inh: 0.2; LANA-H2B inh: 0.7; Beta apoptosis: -3; Beta2AR agonist: 0; Calb FLC: -8

What do the screens show for `COc1cccc(OC)c1NC(=O)Cn1nc(-c2ccc3c(c2)OCCO3)ccc1=O`?
ALR H2O2 inh: 1; T cruzi repl: -10; A1 inh: 0.4; LANA-H2B inh: -0.6; Beta apoptosis: 2; Beta2AR agonist: -7; Calb FLC: 10; rRNA inh HTS: 12; rRNA inh HTS OD600: 14; rRNA inh HTS RFP: 0.5

Results for O=C(NCc1ccc2c(c1)OCO2)c1ccc(CSCc2ccc(Cl)cc2)o1 ?
ALR H2O2 inh: 12; T cruzi repl: 5; A1 inh: 0.2; LANA-H2B inh: -4.4; Beta apoptosis: 2; Beta2AR agonist: -6; Calb FLC: -6

How did CCn1c2ccccc2c2cc(NC(=O)CSc3nnc(-c4ccccc4)o3)ccc21 do in these assays?
ALR H2O2 inh: -14; T cruzi repl: 3; A1 inh: 0.6; LANA-H2B inh: -8.4; Beta apoptosis: 4; Beta2AR agonist: 7; Calb FLC: -3

What do the screens show for `CC(=O)N1c2ccc(S(=O)(=O)N3CCC(C(=O)Nc4cccc(Cl)c4)CC3)cc2CC1C` (stereo not drawn)?
ALR H2O2 inh: -3; T cruzi repl: 1; A1 inh: 0.1; LANA-H2B inh: 2.8; Beta apoptosis: 43; Beta2AR agonist: 15; Calb FLC: -3; rRNA inh HTS: -9; rRNA inh HTS OD600: -6; rRNA inh HTS RFP: -6.5

What do the screens show for `O=C(Cn1cnc2c(nnn2-c2cccc(F)c2)c1=O)Nc1ccc2c(c1)OCCO2`?
ALR H2O2 inh: 38; T cruzi repl: -7; A1 inh: 0.0; LANA-H2B inh: 10; Beta2AR agonist: -13; Calb FLC: -8; rRNA inh HTS: 2; rRNA inh HTS OD600: 15; rRNA inh HTS RFP: -1.9

How did CC1(C)COC(Cn2c3ccccc3c3ccccc32)O1 (stereo not drawn) do in these assays?
ALR H2O2 inh: -6; T cruzi repl: 3; A1 inh: 0.4; LANA-H2B inh: -1.5; Beta apoptosis: 0; Beta2AR agonist: -7; Calb FLC: -13; rRNA inh HTS: -18; rRNA inh HTS OD600: -3; rRNA inh HTS RFP: -4.6

What do the screens show for `O=C(CSc1ncn(-c2ccccc2)n1)N1CCc2ccccc21`?
ALR H2O2 inh: -7; A1 inh: -1.1; LANA-H2B inh: 0.4; Beta apoptosis: -9; Beta2AR agonist: -20

Results for O=C(NC(=O)c1ccccc1)OCCN1C(=O)c2ccccc2C1=O ?
ALR H2O2 inh: -3; T cruzi repl: -7; A1 inh: 1.2; LANA-H2B inh: 1.4; Beta apoptosis: -1; Beta2AR agonist: -4; Calb FLC: inconclusive; rRNA inh HTS: 4; rRNA inh HTS OD600: -5; rRNA inh HTS RFP: -1.4

What do the screens show for `O=C(c1ccccc1)N1CCC(O)(c2ccc3c(c2)OCO3)CC1`?
ALR H2O2 inh: -6; T cruzi repl: -11; A1 inh: -0.8; LANA-H2B inh: 5.6; Beta apoptosis: -6; Beta2AR agonist: 4; Calb FLC: -5

What do the screens show for `O=[N+]([O-])c1ccc(Nc2ccc(Cl)cc2)nc1`?
ALR H2O2 inh: -16; T cruzi repl: 16; A1 inh: -0.2; LANA-H2B inh: 0.0; Beta2AR agonist: 9; Calb FLC: -38; rRNA inh HTS: -24; rRNA inh HTS OD600: -24; rRNA inh HTS RFP: 13

What do the screens show for `COc1ccc2c3c(cccc13)N(C)N=C2C`?
ALR H2O2 inh: 75; T cruzi repl: 27; A1 inh: 0.9; LANA-H2B inh: 7.6; Beta2AR agonist: -2; Calb FLC: -5

The list is partial, so the mix of outcomes need not match the whole.
